Screening results (PubChem)
rRNA inh HTS: inhibits bacterial ribosomal RNA function over humanized ribosomes; E. coli WT GFP vs humanized-ribosome RFP mutants, fluorescence, 24 h; hits give low values; DMSO median 0, no signal -100; GFP signal change (wild-type ribosome), % (test concentration not listed); 350,000 tested, 1.6% active;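 active means significant combined selectivity score with lowered wild-type GFP, culture density cut under 30%, mutant RFP and density less affected; inactive means any of these conditions unmet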; further: one replicate is shown; some compounds called inactive have numbers as strong as hits
FGF22 binding: FGF22 (human) thermal shift binding; Q9HCT0; 340,000 tested, 1.5% active; recombinant FGF22 thermal shift, SYPRO orange fluorescence; percent of sucrose octasulfate shift, DMSO zero; calls only at 9.99 µM;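 active means melting point raised past a set limit in the mean and every replicate; three in four hits are not shown here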
Target sequence (Q9HCT0 whole entry, looked up): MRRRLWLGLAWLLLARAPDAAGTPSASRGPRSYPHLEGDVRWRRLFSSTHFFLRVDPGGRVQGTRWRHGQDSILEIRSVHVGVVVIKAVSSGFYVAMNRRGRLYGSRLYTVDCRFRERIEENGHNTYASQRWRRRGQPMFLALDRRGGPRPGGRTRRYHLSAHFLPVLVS
MLL AF4-AF9 inh: blocks AF4 peptide binding to human AF9. P42568. AlphaScreen, biotin-AF4 peptide binding to FLAG-AF9. inhibition, % at 10 µM. 350,000 tested, 0.47% active. AID 651704;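 active means every replicate reaching a set inhibition limit, whatever the replicate mean, cut at about 25% in these data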;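 further: 0% = plate neutral control median and 100% = total signal loss; the record names both 10 and 1 µM as test concentration; the first replicate is given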
Target sequence (P42568 whole entry, looked up): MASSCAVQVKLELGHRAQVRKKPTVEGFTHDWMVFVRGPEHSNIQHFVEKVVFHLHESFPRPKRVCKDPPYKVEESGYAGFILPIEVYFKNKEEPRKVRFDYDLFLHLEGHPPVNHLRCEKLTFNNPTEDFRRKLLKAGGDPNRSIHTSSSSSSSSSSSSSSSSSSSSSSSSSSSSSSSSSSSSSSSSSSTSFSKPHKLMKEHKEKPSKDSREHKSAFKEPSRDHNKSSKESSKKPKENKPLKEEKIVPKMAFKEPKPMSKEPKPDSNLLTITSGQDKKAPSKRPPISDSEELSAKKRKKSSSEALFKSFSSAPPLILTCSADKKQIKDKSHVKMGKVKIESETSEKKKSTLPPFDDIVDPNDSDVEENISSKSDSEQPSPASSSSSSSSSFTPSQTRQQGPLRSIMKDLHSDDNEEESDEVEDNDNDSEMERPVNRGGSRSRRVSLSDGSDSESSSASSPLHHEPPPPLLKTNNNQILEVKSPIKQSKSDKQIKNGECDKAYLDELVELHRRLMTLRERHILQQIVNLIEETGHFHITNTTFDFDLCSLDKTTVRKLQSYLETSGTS
rRNA inh HTS OD600: recorded beside rRNA inh HTS, whose call it bears; OD600 change, %; measured here: OD600 growth;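 optical density of the mix in the first replicate; 0 = DMSO median and -100 = no signal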
rRNA inh HTS RFP: also measured in rRNA inh HTS; calls as there; RFP signal change, %; measured here: RFP humanized mutant strains;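 first replicate; 0 = DMSO median and -100 = no signal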
* = called active by the depositor; i = inactive; + = active, no number; & = joins results of further samples. Only part of the results is shown. The share of hits here may be higher or lower than overall.

SMILES	rRNA inh HTS	rRNA inh HTS OD600	rRNA inh HTS RFP	FGF22 binding	MLL AF4-AF9 inh
C[C@@H]1CN([C@H](C)CO)S(=O)(=O)c2ccc(C#CC3CC3)cc2O[C@@H]1CN(C)Cc1ccccn1	-2	-14	-0.2	i	5.3
CO[C@@H]1CN(C)C(=O)c2ccc(NC(=O)Nc3ccccc3F)cc2OC[C@H](C)NC[C@@H]1C	0	-5	-1.0	i	-0.5
CC(C)NC(=O)Nc1ccc2c(c1)CC(=O)N([C@H](C)CO)C[C@H](C)[C@H](CN(C)S(=O)(=O)c1cn(C)cn1)O2	-2	-4	-4.0	i	0.3
COc1ccc(C#Cc2cnc3c(c2)C(=O)N([C@H](C)CO)C[C@H](C)[C@H](CN(C)S(=O)(=O)c2ccccc2)O3)cc1OC	3	3	-0.3	i	3.4
CCCN(CC(=O)Nc1ccccc1C)C(=O)C1CCN(S(=O)(=O)c2ccc(C)c(C)c2)CC1	-15	-22	3.4	i	0.5
COc1ccc2c3c([nH]c2c1)[C@@H](CO)N(C(=O)C1CCCC1)CC31CN(C(=O)NC(C)C)C1	2	10	0.7	i	-0.5
CC(=O)c1ccc(Nc2nc(-c3sc(C)nc3C)cs2)cc1	0	-3	12	i	2.0
O=C(Nc1cc(F)ccc1F)N[C@@H]1C=C[C@H](CC(=O)N2CCc3ccccc3C2)O[C@@H]1CO	-3	-8	3.3	i	1.1
CCCN(CC(=O)Nc1ccccc1OC)C(=O)CN1C(=O)NC(C)(C)C1=O	5	15	-3.6	i	1.9
CCCNC(=O)C[C@@H]1CC[C@H]2[C@@H](COC[C@H](O)CN2C(=O)Nc2ccc3c(c2)OCO3)O1	-3	1	-1.6	i	-0.5
C[C@@H]1CN([C@@H](C)CO)S(=O)(=O)c2ccc(-c3ccccc3)cc2O[C@H]1CN(C)C(=O)CN(C)C	4	12	-1.7	i	3.9
C[C@@H]1CN([C@@H](C)CO)C(=O)c2cccc(N(C)C)c2O[C@H]1CN(C)Cc1ccccc1	3	6	-3.0	i	-0.2
C[C@H](CO)N1C[C@H](C)[C@@H](CN(C)Cc2ccc(C(F)(F)F)cc2)Oc2c(NC(=O)c3nc4ccccc4s3)cccc2C1=O	1	6	-0.7	i	-2.7
COc1cccc(-c2ccc3c(c2)O[C@H](CN(C)C(=O)C2CCC2)[C@@H](C)CN([C@H](C)CO)S3(=O)=O)c1	-9	-29	3.4	i	-2.2
COc1cccc(CNC(=O)c2cc3c(c(-c4cccc(-c5ccc(C#N)cc5)c4)n2)[C@H](CCO)N([S@@](=O)C(C)(C)C)C3)c1	-14	-32	18	i	5.2
Cc1noc(C)c1NC(=O)Nc1ccc2c(c1)CC(=O)N([C@@H](C)CO)C[C@H](C)[C@@H](CN(C)Cc1ccc3c(c1)OCO3)O2	3	11	-1.4	+	-0.1
O=C(C[C@H]1CC[C@@H]2[C@H](COC[C@@H](O)CN2C(=O)Nc2ccc(Cl)cc2)O1)NCCc1ccncc1	-30	-39	2.0	i	1.3
C[C@@H]1CN([C@@H](C)CO)C(=O)c2cc(NC(=O)NC3CCCCC3)ccc2O[C@@H]1CN(C)Cc1ccc(C(=O)Nc2ccccc2N)cc1	-1	-5	2.1	i	-0.9
C[C@@H]1CN([C@H](C)CO)C(=O)CCCn2nncc2CO[C@H]1CN(C)Cc1ccc(C(=O)O)cc1	7&0	16&3	-1.7&-0.1	i	1.6&-1.2
C[C@@H]1CCCCO[C@@H](CN(C)C(=O)C2CCCCC2)[C@H](C)CN([C@@H](C)CO)C(=O)c2cc(NC(=O)CCC(F)(F)F)ccc2O1	-1	3	-0.7	i	-3.0
C[C@H]1CN([C@@H](C)CO)S(=O)(=O)c2ccc(-c3ccncc3)cc2O[C@@H]1CN(C)Cc1ccc(Oc2ccccc2)cc1	0	-7	2.0	i	-1.4
O=C(C1CCCCC1)N1CC2(C1)[C@H](c1ccccc1)[C@@H](CO)N2Cc1ccc(Cl)cc1	-39	-65	24	i	2.2
C[C@@H]1CN([C@@H](C)CO)C(=O)c2cc(NS(=O)(=O)c3ccc(F)cc3)ccc2O[C@@H](C)CCCCO[C@@H]1CN(C)Cc1ccncc1	-2	-13	-1.1	i	0.3
C[C@H]1CN([C@@H](C)CO)C(=O)c2cc(C3=CCCCC3)cnc2O[C@H]1CN(C)C(=O)Cc1cccnc1	-4	-3	-0.1	i	-2.4
COc1ccccc1NC(=O)N1CC[C@@H]2[C@H]1c1cc(-c3cccc(F)c3)ccc1N(C)[C@H]2CO	0	12	0.6	i	7.3
O=S(=O)(c1ccccc1F)N1CC[C@@H]2[C@H]1c1cc(-c3ccccc3)ccc1N[C@@H]2CO	-8	-51	28	i	-3.8
CC(C)NC(=O)N1[C@H](CO)[C@@H](c2ccccc2)C12CN(Cc1ccc(Cl)cc1)C2	-8	-15	-1.9	i	6.1
CO[C@@H](CN(C)C(=O)c1ccccc1F)[C@H](C)CN([C@@H](C)CO)S(=O)(=O)c1ccc(Cl)cc1	2	6	2.5	i	0.7
CCN(C[C@@H]1N[C@H](CO)[C@@H]1c1ccccc1)C(=O)c1ccccc1	0	-6	-2.1	i	0.5
Cc1noc(C)c1S(=O)(=O)Nc1ccc2c(c1)CC(=O)N([C@H](C)CO)C[C@@H](C)[C@@H](CN(C)S(=O)(=O)c1cn(C)cn1)O2	6	11	-0.3	i	-0.3
CCCS(=O)(=O)NC(=O)C1(C)CCCN(C(=O)c2c(F)ccc(C)c2F)C1 (centres undefined)	8	14	2.4	i	0.3
O=C(O)c1cc(Cl)n[nH]c1=O	16	11	0.1	i	-0.2
COc1cccc(-c2cc(CNC(=O)[C@H]3O[C@@H](n4ccc(=O)[nH]c4=O)[C@H](O)[C@@H]3O)no2)c1	-5	0	-0.7	i	-1.6
CO[C@@H]1CN(C)C(=O)c2cc(NC(=O)Nc3cccc(F)c3)ccc2OC[C@H](C)N(C(C)=O)C[C@H]1C	-4	-5	-1.6	i	4.0
Cc1noc(C)c1NC(=O)N(C)C[C@@H]1Oc2ccc(NC(=O)C3CCCCC3)cc2C(=O)N([C@@H](C)CO)C[C@@H]1C	0	5	1.1	i	-3.5
CO[C@H]1CN(C)C(=O)c2cc(NC(=O)C3CC3)ccc2OC[C@H](C)N(CCC(F)(F)F)C[C@H]1C	-5	-12	-0.4	i	-3.4
CC1=C(C(=O)N(C(C)C)C(C)C)CC(CC(=O)NCc2cccs2)C(=O)N1Cc1ccc(F)cc1 (centres undefined)	-5	-1	1.6	i	-0.3
O=C(Nc1ccccc1F)N[C@@H]1CC[C@H](CCNS(=O)(=O)c2ccc(Cl)cc2)O[C@@H]1CO	-3	0	-2.8	i	2.8
C[C@@H]1CN([C@H](C)CO)C(=O)c2cccc(NC(=O)C3CCOCC3)c2O[C@@H]1CN(C)Cc1ccc(Oc2ccccc2)cc1	0	-1	-0.2	i	4.6
COc1cccc(CN(c2ccccc2C(=O)O)S(=O)(=O)c2ccc(C)cc2)c1	-6	-5	0.4	i	-2.1
C[C@H]1CN([C@@H](C)CO)C(=O)c2cc(C3=CCCC3)cnc2O[C@H]1CN(C)C(=O)Nc1ccc(F)cc1	-1	7	-0.6	i	-0.9
CCN(CC)C(=O)C1=C(C)N(Cc2ccc(C(C)(C)C)cc2)C(=O)C(CC(=O)NCc2cccs2)C1 (centres undefined)	-28	-43	-1.3	i	-0.3
CCCC#Cc1ccc2c(c1)O[C@@H](CN(C)C(=O)c1cnccn1)[C@@H](C)CN([C@@H](C)CO)S2(=O)=O	4	-4	-1.2	i	2.2
CC(C)NC(=O)NCC[C@@H]1CC[C@H](NC(=O)Nc2ccccc2)[C@H](CO)O1	2	8	-0.2	i	0.2
Cc1cc(C(=O)Nc2cccc3c2O[C@@H](CN(C)Cc2ccc(C(=O)O)cc2)[C@@H](C)CN([C@@H](C)CO)C3=O)n(C)n1	4	5	-0.4	i	-8.5

7 entries picked at random from the list so far, as already listed:
SMILES	rRNA inh HTS	rRNA inh HTS OD600	rRNA inh HTS RFP	FGF22 binding	MLL AF4-AF9 inh
CC1=C(C(=O)N(C(C)C)C(C)C)CC(CC(=O)NCc2cccs2)C(=O)N1Cc1ccc(F)cc1 (centres undefined)	-5	-1	1.6	i	-0.3
Cc1cc(C(=O)Nc2cccc3c2O[C@@H](CN(C)Cc2ccc(C(=O)O)cc2)[C@@H](C)CN([C@@H](C)CO)C3=O)n(C)n1	4	5	-0.4	i	-8.5
CC(C)NC(=O)NCC[C@@H]1CC[C@H](NC(=O)Nc2ccccc2)[C@H](CO)O1	2	8	-0.2	i	0.2
CCCC#Cc1ccc2c(c1)O[C@@H](CN(C)C(=O)c1cnccn1)[C@@H](C)CN([C@@H](C)CO)S2(=O)=O	4	-4	-1.2	i	2.2
CO[C@H]1CN(C)C(=O)c2cc(NC(=O)C3CC3)ccc2OC[C@H](C)N(CCC(F)(F)F)C[C@H]1C	-5	-12	-0.4	i	-3.4
O=C(Nc1ccccc1F)N[C@@H]1CC[C@H](CCNS(=O)(=O)c2ccc(Cl)cc2)O[C@@H]1CO	-3	0	-2.8	i	2.8
COc1cccc(-c2cc(CNC(=O)[C@H]3O[C@@H](n4ccc(=O)[nH]c4=O)[C@H](O)[C@@H]3O)no2)c1	-5	0	-0.7	i	-1.6

Remaining list, next part
SMILES	rRNA inh HTS	rRNA inh HTS OD600	rRNA inh HTS RFP	FGF22 binding	MLL AF4-AF9 inh
C[C@@H]1CN([C@H](C)CO)C(=O)Cc2cc(NC(=O)Nc3ccc(C(F)(F)F)cc3)ccc2O[C@@H]1CN(C)C(=O)Nc1ccc(F)cc1	0	-12	3.5	i	0.9
COc1ccc(C(NC(=O)C2CCN(Cc3ccc(Oc4ccccc4)cc3)CC2)c2ccccn2)cc1 (centres undefined)	-58	-77	-16	i	3.1
COc1ccc(-c2cnc3c(NC(C)=O)cc(-c4ccc(C(=O)NC5CC5)cc4)cn23)cc1OC	3	4	5.4	i	1.5
COC(=O)C[C@@H]1CC[C@@H](NC(=O)c2ccccc2)[C@@H](CO)O1	2	0	-2.0	i	0.0
O=c1ccn([C@@H]2O[C@H](CNCc3cccn3-c3nccs3)[C@@H](O)[C@H]2O)c(=O)[nH]1	8	0	-1.9	i	0.6
C[C@H](CO)N1C[C@H](C)[C@H](CN(C)Cc2cccnc2)Oc2cc(-c3ccncc3)ccc2S1(=O)=O	-4	0	-2.2	i	-0.6
O=C(NCCc1ccccc1)C1Cc2c(-c3ccc(Cl)cc3)ccnc2O1 (centres undefined)	-43	-68	-11	i	-2.6
C[C@H](CO)N1C[C@H](C)[C@H](CN(C)S(=O)(=O)c2cn(C)cn2)Oc2ncc(C#Cc3ccc(C(F)(F)F)cc3)cc2C1=O	3	-6	-3.4	i	-1.5
COc1ccccc1-c1ccc2c(c1)O[C@H](CN(C)C(=O)Nc1ccccc1)[C@@H](C)CN([C@@H](C)CO)S2(=O)=O	0	-16	6.7	i	-0.9
COc1ccccc1-c1cnc(C(O)c2ccc(C)c(F)c2)[nH]1 (centres undefined)	-5	-13	0.7	i	-0.3
CCC(=O)N1[C@H](CN(C)C(C)=O)[C@@H](c2ccc(-c3ccccc3)cc2)[C@@H]1CO	-5	-10	0.6	i	-0.2
C[C@H](CO)N1C[C@H](C)[C@@H](CN(C)Cc2ccc(C(F)(F)F)cc2)Oc2ccc(NC(=O)NC3CCCCC3)cc2CC1=O	-2	-10	5.2	i	1.9
C[C@@H]1CN([C@H](C)CO)C(=O)Cc2cc(NS(=O)(=O)c3ccccc3)ccc2O[C@H]1CN(C)Cc1ccc(-c2ccccc2)cc1	2	-8	1.6	i	-3.6
CCCC(=O)Nc1ccc2c(c1)C(=O)N(C)[C@H]1CC[C@H](CC(=O)Nc3cn(C)nc3C)O[C@H]1CO2	2	1	-1.1	i	-1.9
CCNC(=O)C[C@@H]1CC[C@@H]2[C@@H](COc3ccc(NC(=O)C4CCOCC4)cc3C(=O)N2C)O1	1	-2	0.1	i	-0.8
COc1cccc(C(=O)Nc2ccc3c(c2)C(=O)N(C)C[C@H](OC)[C@H](C)CN(C(C)=O)[C@H](C)CO3)c1	-1	1	0.3	i	0.9
CN1C(=O)c2cc(NC(=O)Nc3ccccc3Cl)ccc2OC[C@H]2O[C@@H](CC(=O)NCCCN3CCOCC3)CC[C@H]21	2	2	1.4	i	2.1
C[C@@H]1CN([C@H](C)CO)C(=O)c2cc(NC(=O)C3CCCCC3)ccc2O[C@@H](C)CCCCO[C@H]1CN(C)C(=O)CCC(F)(F)F	0	-2	2.8	i	-3.7
O=C(NC1CCC1)[C@@H]1[C@@H](CO)[C@@H]2Cn3c(ccc(-c4ccccc4)c3=O)[C@H]1N2CC1CC1	-2	-6	-3.2	i	-2.3
COCCNC(=O)C1C(=O)Nc2ccccc2C(=O)N1C1CCCC1 (centres undefined)	26	24	-0.2	i	-5.8
CCCCNC(=O)c1ccc2nc(CC)c(N(CC)CCOC)n2c1	-1	5	-2.5	i	-0.6
O=C(Nc1ccc(F)cc1)N1CCCCN2[C@H](CO)[C@@H](c3ccc(C#Cc4ccccc4)cc3)[C@H]2C1	-57	-73	-8.3	i	-4.8
C[C@H]1CN([C@@H](C)CO)C(=O)c2cc(C#CC3(O)CCCC3)cnc2O[C@@H]1CN(C)S(C)(=O)=O	-1	4	-1.6	i	-1.7
